StopGo reporter = lowers the luciferase signal of an FMDV 2A StopGo reporter; human cells with a luciferase reporter of 2A StopGo recoding; control for the full effect not named in the record; Potency, µM (highest dose often 57.9 µM), without a hit: top-dose signal change, negative = less light; hit rate 1.2% among 410,000; active = well fitted falling curve with a large enough effect; inconclusive = small, poorly fitted or top-dose-only effect; inactive = no such curve, though single readings can be large or run the other way; tested in HEK293T cells; also: % is scaled to controls: 0 for no effect and ±100 for the full control effect; nearly all actives have a fitted effect of over 45% in size; luciferase light after 4 h
Marburg entry inh = Marburg virus entry inhibition; Marburg virus pseudotyped entry inhibition, cell reporter; control for the full effect not named in the record; about a third of the inactives were read at about 46 µM; Potency, µM (series often up to 37.8 µM), for the others: at the top dose activity change, negative = inhibition, hits mostly inhibitors; hit rate 1.8% among 300,000; AID 540276; active = well fitted inhibition curve with a large enough effect; inconclusive = small, poorly fitted or top-dose-only effect, or effect the other way; inactive = flat fitted curve, though single readings scatter; tested in HEK293 cells; about a fifth of its hits are not listed in these tables; also: % is scaled to controls: 0 for no effect and ±100 for the full control effect; luciferase read-out
RE007 growth inh = less growth of the S. pombe RE007 Vpr strain | S. pombe RE007 Vpr strain, BacTiter-Glo ATP luminescence, 24 h; control for the full effect not named in the record | Potency, µM (series often up to 92.2 µM), for inactives: at the highest dose activity change, negative = less growth | hit rate 0.21% among 360,000 | AID 651644; active = well fitted falling curve with a large enough effect; inconclusive = small, poorly fitted or top-dose-only effect; inactive = no such curve, though single readings can be large or run the other way;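 also: % is scaled to controls: 0 for no effect and ±100 for the full control effect; nearly all actives have a fitted effect of over 50% in size; the assay follows cell death caused by Vpr and the record does not say whether a fall means rescue or toxicity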
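Fission yeast strain RE007, carrying one chromosomally integrated HIV-1 vpr copy, was seeded at OD 0.01 in PMG+AL medium with 23 nL pinned compound. After 24 h at 30 °C and 99% humidity, viability was read by BacTiter-Glo luminescence.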
SARS PLP yeast = blocks SARS-CoV papain-like protease in a yeast assay; S. cerevisiae expressing SARS-CoV PLpro, growth rescue; control for the full effect not named in the record; Potency, µM (top dose mostly 32.9 µM), for the others: at the top dose activity, positive = growth rescue; hit rate 0.19% among 330,000; AID 485353; active means well fitted rising curve with a large enough effect; inconclusive means small, poorly fitted or top-dose-only effect; inactive means no such curve, though single readings can be large or run the other way; also: 0% is about no effect; nearly all actives have a fitted effect of over 55% in size; growth read by luminescence after 48 h
Cruzain inh Det = inhibitors of Trypanosoma cruzi cruzain with detergent; hit rate 0.43% among 200,000; Potency, µM, without a hit: max response, negative = inhibition, hits mostly inhibitors; P25779; purified cruzain, Z-FR-AMC fluorescence, 0.01% Triton;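 also: plate controls were neutral wells for no effect and buffer without enzyme for full effect; nearly all actives have a fitted effect of over 40% in size; top concentration of the series not given in the record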
Target sequence (P25779 123-467 limits assumed): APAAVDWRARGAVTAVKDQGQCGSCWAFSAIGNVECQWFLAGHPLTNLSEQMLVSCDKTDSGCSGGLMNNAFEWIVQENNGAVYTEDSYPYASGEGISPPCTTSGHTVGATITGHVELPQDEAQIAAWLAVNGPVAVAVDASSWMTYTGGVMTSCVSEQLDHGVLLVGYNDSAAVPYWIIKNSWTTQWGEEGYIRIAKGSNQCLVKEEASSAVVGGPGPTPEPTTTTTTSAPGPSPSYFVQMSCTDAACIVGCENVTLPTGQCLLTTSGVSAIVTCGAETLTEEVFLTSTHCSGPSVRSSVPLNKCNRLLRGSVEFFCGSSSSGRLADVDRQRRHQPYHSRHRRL
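Z-FR-AMC hydrolysis (2 uM substrate) by cruzain (1.5 nM) monitored kinetically at ex 360/em 450 nm after 15 min room-temperature compound exposure; 0.01% Triton X-100, pH 5.5, 5 mM DTT.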
NS1 inh = influenza NS1 inhibition; S. cerevisiae slowed by influenza A NS1, growth recovery by OD600; Potency, µM (top dose mostly 46.1 µM), for inactives: at the top dose activity, positive = more growth; hit rate 0.4% among 270,000; AID 2326; active means well fitted rising curve with a large enough effect; inconclusive means small, poorly fitted or top-dose-only effect; inactive means no such curve, though single readings can be large or run the other way; also: nearly all actives have a fitted effect of over 50% in size
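In this qHTS, NS1 from influenza A is expressed in budding yeast, where it slows growth. Cells are switched from glucose to 2% galactose medium (pH 6.0, -URA), treated with compound, and growth recovery is read at OD600.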
Lassa entry inh = inhibitors of Lassa virus binding or cell entry; AID 540256; Lassa virus pseudotype entry inhibition, cell reporter; control for the full effect not named in the record; hit rate 1.2% among 300,000; Potency, µM (highest dose often 37.9 µM), without a hit: top-dose activity change, negative = inhibition, actives largely listed as inhibitors; active means well fitted inhibition curve with a large enough effect; inconclusive means small, poorly fitted or top-dose-only effect, or effect the other way; inactive means flat fitted curve, though single readings scatter; tested in HEK293 cells; also: % is scaled to controls: 0 for no effect and ±100 for the full control effect; nearly all actives have a fitted effect of over 50% in size; luciferase read-out
Cruzain noTriton = inhibitors of Trypanosoma cruzi cruzain without detergent; P25779; purified cruzain, Z-FR-AMC fluorescence, no detergent; Potency, µM, without a hit: max response, negative = inhibition, usual class: inhibitors; hit rate 2.3% among 200,000;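 also: plate controls were enzyme without inhibitor for no effect and buffer without enzyme for full effect; nearly all actives have a fitted effect of over 40% in size; top concentration of the series not given in the record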
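Purified cruzain at 1.5 nM, pre-incubated 15 min with compound at room temperature in 100 mM sodium acetate pH 5.5, 5 mM DTT, 0.00005% Triton X-100. Reaction started with 2 uM Z-FR-AMC; AMC fluorescence increase over 60 s gives rate.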
* = called active by the depositor; ? = inconclusive; · = not tested or not shown; & = joins results of further samples; [ ] = dose if it differs, or a comment. Unless noted, calls follow the shape of the dose curve; as a rule, active = well fitted curve in the direction sought with a large enough effect; inconclusive = small, poorly fitted or top-dose-only effect, or another doubt; inactive = no such curve, though single readings can be large; an effect the other way counts as inactive or inconclusive. Potency is read from the fitted curve at half-maximal effect.

Screens in order – StopGo reporter, Marburg entry inh, RE007 growth inh, SARS PLP yeast, Cruzain inh Det, NS1 inh, Lassa entry inh, Cruzain noTriton
COCCCNC(=O)C1C2C=CC3(CN(Cc4ccc(C)cc4)C(=O)C13)O2 (configuration not stated)
 : 11.1%, 0.6%, -1.3%, -1.4%, 3.3%, 12.9%, 14.0%[14.3 µM], 7.7%
Cc1ccc(C)c2[nH]c(=O)c(CN(CC3CCCO3)S(=O)(=O)c3ccc4c(c3)OCCO4)cc12 (configuration not stated)
 : -17.9%, -5.0%&-4.0%, -7.3%, 3.3%, 5.0%, 0.0%, 5.7%, ?
CCOC(=O)c1ccc(NC(=O)CSCC(=O)OCC(=O)c2ccccc2)cc1
 : -7.4%, 10.9%, 21.9%, -8.6%, -7.0%, -24.4%, 4.4%, -4.1%
N#CCCCSc1nnc(CSc2nc3ccccc3s2)n1-c1ccccc1
 : -16.4%, ?, 7.7%, -8.1%, -9.6%, -13.2%, -26.6%, ?
CC(OC(=O)CNC(=O)c1ccc(Cl)cc1)C(=O)NC1CCCCC1C (configuration not stated)
 : -9.1%, 1.2%[46.1 µM], 16.9%, 3.2%, ·, ·, -0.3%, ·
CC1CN(c2ccc(Cl)cc2)c2nc3c(c(=O)[nH]c(=O)n3C)n2C1 (configuration not stated)
 : 0.0%, ·, 1.9%, -0.7%, ·, -2.1%, ·, ·
COc1ccc(CSC2=CS(=O)(=O)c3ccccc3N2)cc1
 : 3.6%, ?, 5.6%, -0.4%, ·, 0.8%, -10.8%, ·
CCOC(=O)N1CCC(Nc2c(NCCN3CCN(Cc4ccccc4)CC3)c(=O)c2=O)CC1
 : -12.9%, 28.9%, 16.6%, 0.4%, 0.7%, -3.7%, 9.6%, 7.1%
CC(=O)c1ccc(NC(=O)CN(C)CC(=O)Nc2cccc(F)c2)cc1
 : -8.7%, ?, -8.0%, 1.5%, ·, ·, -14.3%, ·
COc1cccc(NC(=O)c2ccnc(N3CCC(C(=O)NCc4cc(OC)ccc4OC)CC3)c2)c1
 : -10.2%, ·, -5.2%, -4.5%, ·, -8.9%, ·, ·
COc1ccc2[nH]c(=O)c(CN(C(C)=O)c3cccc(C)c3)cc2c1
 : -11.0%, 2.9%, -8.3%, 0.8%, -1.7%, -5.8%, 2.5%, -2.9%
Cc1nc2nc(C)c(CCC(=O)N3CCc4ccccc43)c(C)n2n1
 : 1.2%, 11.3%, 18.4%, 5.8%, 2.4%, 8.3%, 22.3%, 6.0%
N#Cc1ccc(C(c2nnnn2C2CCCC2)N2CCC(Cc3ccccc3)CC2)cc1 (configuration not stated)
 : -11.1%, -28.1%, -5.6%, 2.6%, 3.3%, 4.5%, -3.9%, -7.1%
COc1cccc(CNCCNC(=O)c2ccco2)c1OC
 : -18.2%, -17.8%, -5.9%, 2.6%, 1.5%, -6.3%, ?, 6.1%
CCOC(=O)c1c(NC(=O)CSc2nc(-c3ccc(OC)cc3)cc(C(F)(F)F)n2)sc(C)c1C
 : -21.7%, -13.8%[46.1 µM], ·, ·, -9.7%, ·, 11.6%[46.1 µM], -15.4%
CCC(=O)N1c2ccc(S(=O)(=O)CCC(=O)Nc3nccs3)cc2CC1C (configuration not stated)
 : -26.7%, -5.6%[46.1 µM], -5.1%, 6.6%, -0.1%, 6.7%, -0.5%, -0.4%
COc1cc(OC)cc(C(=O)NCCCCc2ccccc2)c1
 : 21.1%, -29.3%[46.1 µM], 11.0%, ·, ·, ·, 13.9%[46.1 µM], ·
Cc1ccc(NC(=O)CSc2nc3c(cc2C#N)C(=O)CCC3)cc1S(=O)(=O)N(C)C
 : ?, -29.5%, 41.9%, -3.1%, -0.1%, 9.1%, 0.0%, -17.0%
O=C(c1csc2c1CCCC2)N1CCN(c2cccc(C(F)(F)F)c2)CC1
 : ?, 4.8%, -7.6%, -21.6%, -12.6%, 21.2%, -18.4%, 12.2%
Cn1nnnc1CCOCCc1nnnn1C
 : -13.8%, ?, 27.2%, 7.9%, 6.7%, -4.6%, 3.7%, 3.9%
O=C(/C=C/NNC(=O)c1ccccc1)c1ccccc1
 : 10.7%, 1.8%, -7.5%, -7.7%, -4.4%, -30.5%, -1.1%, -9.5%
O=C(NCc1ccccc1)c1ccc(C(=O)NCc2ccccc2)cc1
 : -24.3%, 8.1%, -4.9%, ·, ·, ·, 8.4%, ·
CC1CN(C(=O)COC(=O)c2ccc3ncsc3c2)CC(C)O1 (configuration not stated)
 : -8.2%, -0.1%[46.1 µM], 5.6%, -0.3%, ·, ·, 11.4%[46.1 µM], ·
CCCCn1c(=N)n(CC(=O)c2ccco2)c2ccccc21
 : ·, ?, 0.0%, 0.9%, 2.2%, 8.9%, -10.8%, 9.2%
CC(=O)C1CCC2C3CC(C)C4=CC(=O)CCC4(C)C3C(=O)CC12C (configuration not stated)
 : -13.3%, -11.6%, 11.7%, ·, ·, ·, -3.7%, ·
CS(=O)(=O)Cc1ccc(C(=O)NCC2(N3CCCCC3)CCCCC2)cc1
 : 15.5%, 21.2%[46.1 µM], -7.4%, 2.3%, ·, 3.9%, ·, ·
COCCn1c(-c2ccccc2)csc1=Nc1cccnc1
 : ?, ?, 6.6%, -9.2%, ·, ·, 6.4%[46.1 µM], ·
Cc1cc(=O)n2nc(N3CCCC(C(=O)NCCc4ccc(Cl)cc4)C3)sc2n1 (configuration not stated)
 : 16.6%, ·, -8.2%, 0.6%, ·, 0.9%, ·, ·
O=C(Nc1ccc2ccccc2c1)/C(=C/c1cccc(Br)c1)NC(=O)c1ccco1
 : 0.2%, ?, 7.0%, 5.8%, -5.6%, 13.7%, -3.4%, ?
Cc1cc(C)cc(OCC(=O)Nc2ccc3c(c2)C(=O)c2ccccc2C3=O)c1
 : -9.5%, -2.4%, 10.7%, -18.2%, -1.3%, -2.4%, 15.4%, 25.1µM*
Cc1ccc(S(=O)(=O)N2CC3(C)CN(S(=O)(=O)c4ccc(C)cc4)CC(C)(C2)C3=O)cc1
 : 3.9%, ?, -16.6%, -1.1%, 4.5%, 8.6%, 3.3%, -17.6%
Cc1ccc(-n2nnnc2SCC(=O)NCCc2ccccc2)cc1C
 : 2.2%, 1.5%[46.1 µM], ·, ·, -2.9%, ·, -37.6%[46.1 µM], 8.8%
COc1cccc(C(=O)NCc2cn3cccc(C)c3n2)c1
 : -15.6%, -9.4%[46.1 µM], ·, ·, -6.6%, ·, -3.9%[46.1 µM], ?
COc1cc(C(=O)Nc2ccc(-c3nc4cc(C)c(C)cc4o3)cc2)cc(OC)c1OC
 : -28.7%, ·, ·, ·, -0.8%, ·, 2.4%[46.1 µM], 4.9%
CC1(C)CC2CC(C)(CN2CC(O)COc2ccccc2)C1 (configuration not stated)
 : -10.5%, 22.9%[46.1 µM], 6.4%, 2.9%, ·, ·, 6.1%, ·
COc1cccc(Oc2ccc(C(F)(F)F)cc2NC(=O)C2=COCCO2)c1
 : 0.0%, ·, 0.3%, -2.2%, ·, 5.0%, ·, ·
COc1cc(/C=N/Nc2nc3ccccc3[nH]2)ccc1O
 : 7.0%, -8.6%, 4.4%, -10.4%, -29.4%, -1.6%, ?, ?
CCOC(=O)C1CCCN(c2ncnc3c2[nH]c2cccc(OC)c23)C1 (configuration not stated)
 : ·, -6.2%, ·, -1.2%, -10.7%, ?, ·, 8.7%
C[C@@H]1C2CC(C/C2=N\NC(=O)c2ccncc2)C1(C)C (some centres not stated)
 : -6.7%, ·, 13.3%, -0.5%, ·, 1.0%, ·, ·
O=C(C1c2ccccc2Oc2ccccc21)N1CCN(c2ccc(Cl)cc2)CC1
 : ?, ?, -4.8%, -1.0%, -6.5%, -1.4%, ?, ?
CCCCOC(=O)COc1ccc(Cl)cc1Cl
 : -21.1%, ·, 12.0%, 1.6%, -5.1%, ·, ·, -1.0%
CCCCCCC(=O)Nc1ccc2nc3c(=O)n(C)c(=O)n(C)c3nc2c1C
 : 11.2%, -3.8%[46.1 µM], ·, ·, -0.6%, ·, 11.2%[46.1 µM], -3.6%
Oc1ccc(Nc2nc(-c3ccccc3O)nc3ccccc23)cc1
 : 0.0%, ·, ?, -12.2%, ·, -83.0%, ·, ·
O=C(NCCN1CCOCC1)c1cc(-c2ccccc2Cl)on1
 : 24.9%, 17.0%[46.1 µM], -5.7%, -1.0%, ·, -2.5%, -7.7%[46.1 µM], ·
CCOc1ccc(OCC(=O)NCCS(=O)(=O)N2CCN(c3ccc(F)cc3)CC2)cc1
 : -3.9%&-12.2%, ·, 8.4%, 6.1%, -1.3%, 2.1%, -9.5%[46.1 µM], 0.6%
CC(NC(=O)NNC(N)=S)(C(F)(F)F)C(F)(F)F
 : -6.9%, -11.8%, -11.5%, 21.1%, ·, -2.1%, -0.7%, ·
Cc1cc(C)cc(NC(=O)CSc2ccccc2)c1
 : 13.7%, ?, 15.2%, -0.9%, ·, -1.8%, ?, ·

Profiles as entered above. Values in the order: StopGo reporter	Marburg entry inh	RE007 growth inh	SARS PLP yeast	Cruzain inh Det	NS1 inh	Lassa entry inh	Cruzain noTriton
`O=C(NCCN1CCOCC1)c1cc(-c2ccccc2Cl)on1` as listed: 24.9%	17.0%[46.1 µM]	-5.7%	-1.0%	·	-2.5%	-7.7%[46.1 µM]	·
`Oc1ccc(Nc2nc(-c3ccccc3O)nc3ccccc23)cc1` as listed: 0.0%	·	?	-12.2%	·	-83.0%	·	·
`CCOC(=O)C1CCCN(c2ncnc3c2[nH]c2cccc(OC)c23)C1` (configuration not stated) as listed: ·	-6.2%	·	-1.2%	-10.7%	?	·	8.7%
`COc1cc(C(=O)Nc2ccc(-c3nc4cc(C)c(C)cc4o3)cc2)cc(OC)c1OC` as listed: -28.7%	·	·	·	-0.8%	·	2.4%[46.1 µM]	4.9%

Compound activity as filed in PubChem.

Compounds as they come. Share with any hit: about 4.5%.
